Screens deposited in PubChem BioAssay by National Center for Advancing Translational Sciences (NCATS).
AmpC nodet inh – blocks E. coli AmpC beta-lactamase in absence of detergent. AmpC nitrocefin hydrolysis, absorbance 480 nm, no detergent; potencies from a single point are estimates. 1.8% of 71,000 active. P00811. AID 585. Potency, µM (titrated, usually from 28.7 µM), inactives show top-dose activity change, negative = inhibition; active = falling curve, for most hits resting on a single point; inconclusive = weak or doubtful change; inactive = flat or rising curve; further: % of control where 0% means no effect; about half of the hits show no inhibition at the top dose; a quarter of the inactives give rising signals
Target sequence (P00811 whole entry, looked up): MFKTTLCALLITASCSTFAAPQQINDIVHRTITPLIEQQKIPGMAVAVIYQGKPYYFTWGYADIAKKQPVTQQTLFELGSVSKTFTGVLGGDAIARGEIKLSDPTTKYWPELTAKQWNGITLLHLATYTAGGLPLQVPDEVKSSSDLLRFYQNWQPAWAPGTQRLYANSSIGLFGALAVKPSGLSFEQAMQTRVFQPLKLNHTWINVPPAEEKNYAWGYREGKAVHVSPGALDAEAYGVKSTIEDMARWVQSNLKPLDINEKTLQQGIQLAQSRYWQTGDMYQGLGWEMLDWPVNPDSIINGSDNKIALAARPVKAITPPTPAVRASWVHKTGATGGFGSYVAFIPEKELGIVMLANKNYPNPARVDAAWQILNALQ
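AmpC in 20 mM phosphate buffer pH 7.0 was preincubated 15 min at room temperature with compounds. Nitrocefin (800 uM stock) was then added and hydrolysis followed at 480 nm every 20 s for 4 min.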
Numbers without * were called inactive; ? = inconclusive; [ ] = dose if it differs, or a comment. Potency means the concentration at half of the fitted maximal effect. An excerpt, so the mix of outcomes need not match the whole.

mol,AmpC nodet inh
COc1ccc(NC(=O)NCc2cccnc2)cc1OC,16%
NC(=O)c1ccsc1NC(=O)C1CCCN1S(=O)(=O)c1ccc(Cl)cc1 (stereo unspecified),-6%
CCOC(=O)N1CCN(C(=O)CCN2C(=O)COc3ccc(C)cc32)CC1,36%
Cn1c(CN2CCCCC2)c(C#N)c2ccccc21,9%
CS(=O)(=O)n1nc(C(=O)N2CCOCC2)nc1N,-15%
CCCOc1cccc(C(=O)N(Cc2ccco2)C2CCS(=O)(=O)C2)c1 (stereo unspecified),44%
C=COCCNC(=O)Nc1ccc(Cl)c(Cl)c1,-8%
COc1ccc(C(=O)N2CCC3(CC2)CCN(c2ncccn2)CC3)cc1,39%
Cn1c(=O)c2[nH]c(CNCc3ccccc3Cl)nc2n(C)c1=O,-2%
COCCCNS(=O)(=O)c1ccc(OC)c(Cl)c1Cl,14%
Cc1nc2cnc(N3CCNCC3)nc2n(CCC#N)c1=O,18%
C=CCNC(=O)NC(=S)c1ccccc1,2%
O=S1(=O)N=C(N2CCOCC2)c2ccccc21,-11%
CC(C)(OOC(C)(C)c1ccccc1)c1ccccc1,-10%
COc1cccc(NC(=O)c2oc3ccccc3c2NC(=O)c2ccc3c(c2)OCO3)c1,-24%
O=C(Nc1ccccc1)NC1(C(=O)N2CCN(c3ncccn3)CC2)CCCCC1,-16%
COc1ccc2cc(CN(Cc3cccnc3)S(=O)(=O)c3ccccc3)c(=O)[nH]c2c1,105%
CCOC(=O)c1c(NC(=O)CSc2nnc(C)s2)sc2c1CCN(C)C2,47%
COC(=O)C1=C(C)Nc2ncnn2C1c1ccccn1 (stereo unspecified),-3%
CC(C)[C@@H]1N[C@]2(C(=O)Nc3ccccc32)[C@@H]2C(=O)N(c3cccc(C(F)(F)F)c3)C(=O)[C@@H]21,17%
COc1ccc(OC)c(NC(=O)CSc2ccccc2)c1,1%
Cc1ccccc1S(=O)(=O)O[C@@H]1NS(=O)(=O)c2ccccc21,0%[5.75 µM]
O=C(CCC1CCCCC1)Nc1c2c(nn1-c1ccc(F)cc1)CS(=O)(=O)C2,19%
COC(=O)Nc1ccc(S(=O)(=O)N2CCCCCC2)cc1,-6%
CCN(CC)S(=O)(=O)N1CCC(C(=O)NCCN2CCOCC2)CC1,2%

Among those listed so far, 2 have a furan ring, fused or not:
mol,AmpC nodet inh
CCCOc1cccc(C(=O)N(Cc2ccco2)C2CCS(=O)(=O)C2)c1 (stereo unspecified),44%
COc1cccc(NC(=O)c2oc3ccccc3c2NC(=O)c2ccc3c(c2)OCO3)c1,-24%

Additional compounds
mol,AmpC nodet inh
COc1ccc2c(c1O)-c1c(OC)c(OC)cc3c1[C@H](C2)N(C)CC3,6%
CCOc1ccccc1NC(=O)c1cc(Cl)ccc1NC(=O)c1ccco1,0%
Cc1ccc(CCNC(=O)c2coc3nc4ccccc4nc23)cc1,-8%
Nn1c(SCC(=O)NC2CCCCC2)nnc1-c1ccc(Cl)cc1,2%
CCCc1nnc(NC(=O)C(C)N2C(=O)C3C4C=CC(C4)C3C2=O)s1 (stereo unspecified),33%
CC(C)(C)NC(=O)Cn1c(SCC(=O)N2CCCCCC2)nc2ccccc21,15%
CCOc1ccc(-n2cnnn2)cc1S(=O)(=O)NCc1ccccc1,-3%
O=C(NCc1cccnc1)c1cnc2sccn2c1=O,1%
CCN(CC)P(=O)(Oc1cccc(C)c1)N(CC)CC,61%
Cc1cc(-n2[nH]c(C)c(C)c2=O)nc(-c2ccccc2O)n1,40%
COCCn1c(=O)c(-c2ccccc2)nc2cnc(Nc3cccc(OC)c3)nc21,-2%
CCC(Oc1ccc2c(c1)C(=O)CC(C)(C)O2)C(=O)NCCN1CCCCCC1 (stereo unspecified),7%
CCCN(CCC)CCNS(=O)(=O)c1ccc2c(c1)oc(=O)n2C,-10%
CN(C)c1nc(-c2ccoc2)nc2ccccc12,13%
CCn1c(SCC(=O)OCc2ccccc2)nnc1-c1ccco1,5%
Cn1c(=O)c2c(nc(CN3CCc4ccccc4C3)n2CCc2ccccc2)n(C)c1=O,125%
O=C(Nc1ccc(S(=O)(=O)NCc2cccnc2)cc1)c1ccco1,4%
O=P(O)(O)/C=C(\Cl)c1ccccc1,2%
Cc1cc(C)nc(SCc2nnc(SCC(=O)OC3CCCCC3)o2)n1,?
CCc1ccc2[nH]c(=O)c(CN(Cc3nnnn3C3CCCC3)C3CCCCC3)cc2c1,55%
COc1ccccc1-c1ccc2ncnc(NCc3cccnc3)c2c1,84%
O=C(NC1CC2CCCC(C1)N2C(=O)N1CCCCC1)C1CCCCC1 (stereo unspecified),30%
COC(=O)[C@@]1(Cc2ccc(OC)cc2)[C@H]2c3cc(C(=O)N(C)C)n(CCc4ccc(O)c(OC)c4)c3C[C@H]2CN1C(=O)c1ccccc1,122%
CN(Cc1ccco1)c1nc(-c2ccccc2C(F)(F)F)nc2ccccc12,27%
COc1ccc2c(c1)nc1n2CN(CC2CCCO2)CN1Cc1ccccc1 (stereo unspecified),33%
CNC(=O)c1ccc(OCc2ccccc2)c(OC)c1,4%
CN1CC2=Cc3ccccc3OC23Oc2ccccc2C=C3C1,46%
COCCSc1nnc(NC(=O)C2CCCO2)s1 (stereo unspecified),-3%
Cc1c(C#N)c2ccccc2n1CC(=O)NCc1cccnc1,1%
O=C1C=C(NCc2ccc(Cl)cc2)CC(c2ccco2)C1 (stereo unspecified),0%
Nc1ccc(C(=O)C[C@H](N)C(=O)O)cc1O,4%[5.75 µM]
COc1ccc(S(=O)(=O)NC(CC(=O)NCc2ccccc2OC)c2ccco2)cc1 (stereo unspecified),6%
CC1Cc2ccccc2N1C(=O)CSc1nnc2sc3ccccc3n12 (stereo unspecified),44%
COc1ncc2ncc(=O)n(C[C@H]3CCCO3)c2n1,8%
COCc1nnc(NC(=O)CCC2CCCCC2)s1,10%
CC1(C(=O)NC2CCCCC2)CCC(=O)N1Cc1cccnc1 (stereo unspecified),4µM*[single pt active]
O=C1OCCN1P(=O)(c1ccccc1)c1ccccc1,-11%
O=C(Oc1nsnc1N1CCOCC1)N1CCCCC1,11%
Cc1ccc(S(=O)(=O)NCCc2ccncc2)cc1,-3%
O=C(O)c1cc(-c2ccncc2)nc2ccccc12,13%[5.75 µM]
COc1ccc(C(C(=O)NC2CCCCC2)N(CC2CCCO2)C(=O)CNC(=O)c2ccco2)cc1 (stereo unspecified),61%
CCOc1ccccc1C1C(C#N)=C(SCC(=O)OC)NC(=O)C1C(=O)OC (stereo unspecified),30%
Cc1cnc(CNc2nc(-c3ccc(N(C)C)cc3)nc3ccccc23)cn1,94%
COC(=O)NC1CCS(=O)(=O)C1 (stereo unspecified),-1%
COc1ccccc1NC(=O)C1=C(C)Nc2nc(CCCO)nn2C1c1ccc2c(c1)OCO2 (stereo unspecified),50%
C[C@](N)(COP(=O)(O)O)C(=O)O,14%
CCCCCCCCCCCCCCCCCC(=O)NC[C@@H](COP(=O)([O-])OCC[N+](C)(C)C)OCC,146%
CC(=O)Nc1nnc(C)s1,13%
COc1ccc(C(=O)NCCn2cc(SCC(=O)N3CCOCC3)c3ccccc32)cc1,60%
COC(=O)c1ccc(C(NC(=O)OCc2ccccc2)/C(=C/[C@@H](C)C(=O)N(C)Cc2cccnc2)c2cccnc2)cc1 (stereo partly specified),127%

Later entries.
mol,AmpC nodet inh
CC(=O)c1cc(Cl)ccc1OC(=O)c1ccco1,-8%
Cc1cc(NC(=O)c2cccc(S(=O)(=O)N3CCCC3)c2)no1,-6%
CS(=O)(=O)c1ccc(/C=N\NC(N)=S)cc1,-1%[5.75 µM]
OC(CNCc1ccco1)COc1ccccc1 (stereo unspecified),18%
O=c1[nH]c2[nH]c(=S)[nH]c(=S)c2[nH]1,-6%[5.75 µM]
C[C@@H]1CC2(OC(O)[C@]3(C)O[C@H]23)O[C@H]2C[C@@]3(C)[C@@H]4CC[C@H]5C(C)(C)C(O[C@@H]6OC[C@@H](O)[C@H](O)[C@H]6O)CC[C@@]56C[C@@]46CC[C@]3(C)[C@@H]12 (stereo partly specified),125%
O=C(COc1ccc(Cl)cc1)NCCCn1ccnc1,-4%
Cc1[nH]nc2ncc(C(=O)c3ccccc3O)cc12,1%
c1ccc2c(CNn3cnnc3)cccc2c1,0%
CCOc1cc(-c2nc(-c3ccc(C)nc3OCC)no2)cc(OCC)c1OCC,47%
O=C(NCc1ccc(F)cc1)C1C2C=CC3(CN(Cc4cccnc4)C(=O)C13)O2 (stereo unspecified),8%
O=c1[nH]c2ccc(S(=O)(=O)NCc3ccccn3)cc2s1,5%
CCN1CCN(C(=O)Nc2cccc3ccccc23)CC1,-3%
O=C1c2ccccc2C(=O)N1c1ccc(-c2nc3ccccc3o2)cc1,-1%
CCC(=O)Nc1ccc(NC(=O)Cc2ccccc2)cn1,-5%
CCCCCOc1ccc(C(=O)NC(CCC)C(=O)O)cc1 (stereo unspecified),1%
Cc1cc(Nc2cccc(F)c2)nc(-c2ccccc2O)n1,-18%
N#CC(C(N)=O)=C1CCC2(CC1)OCCCCO2,-9%
O=C(O)Cn1c(=O)oc2cc(S(=O)(=O)N3CCOCC3)ccc21,-2%
CCc1ccc(CCC(=O)Nc2nnc(C)s2)o1,7%
O=c1c2cccnc2[nH]c(=S)n1CCCN1CCN(c2ccccc2F)CC1,35%
CC1(C)CNC(=O)c2sc(N3CCCCC3)nc2C1,-2%
CC(=O)NCCc1ccc(S(=O)(=O)N2CCOCC2)cc1,19%
COc1ccc(S(=O)(=O)N2CCSC2c2ccc(OC)c(OC)c2)cc1 (stereo unspecified),36%
CCCc1cc(C(=O)Nc2cccnc2)no1,4µM*[single pt active]

A stretch of the results above, for reference:
mol,AmpC nodet inh
CC1Cc2ccccc2N1C(=O)CSc1nnc2sc3ccccc3n12 (stereo unspecified),44%
COc1ncc2ncc(=O)n(C[C@H]3CCCO3)c2n1,8%

6 structures out of the list, ordered by length of the SMILES, highest first:
mol,AmpC nodet inh
Cc1cc(NC(=O)c2cccc(S(=O)(=O)N3CCCC3)c2)no1,-6%
CCOc1ccc(-n2cnnn2)cc1S(=O)(=O)NCc1ccccc1,-3%
CC1(C(=O)NC2CCCCC2)CCC(=O)N1Cc1cccnc1 (stereo unspecified),4µM*[single pt active]
COCCCNS(=O)(=O)c1ccc(OC)c(Cl)c1Cl,14%
N#CC(C(N)=O)=C1CCC2(CC1)OCCCCO2,-9%
C=COCCNC(=O)Nc1ccc(Cl)c(Cl)c1,-8%

Continuation.
mol,AmpC nodet inh
O=C(COc1ccc(-c2nnco2)cc1)N1CCN(S(=O)(=O)c2ccccc2)CC1,19%
CCCCOCCCNC(=O)Cc1cccs1,9%
CCOC(=O)N1CCC(N2CCN(c3cc(C)ccc3C)CC2)CC1,70%
Cn1c(=O)c2cc(S(=O)(=O)N3CCOCC3)ccc2n(C)c1=O,-4%
N#CCOc1nc(N2CCOCC2)nc(N2CCOCC2)n1,-1%
C[N@@+]1(CC[N@@+]2(C)CCC[C@H]2c2cccnc2)CCC[C@@H]1c1cccnc1,6%[5.75 µM]
Oc1ccc(-c2[nH]ncc2-c2ccc(Cl)cc2)c(O)c1,?
CC(=O)N=c1ncn(CC(COC(C)=O)OC(C)=O)c2nc[nH]c12 (stereo unspecified),-3%
CN(CCNC(=O)CCNC(=O)Cn1ccc2ccccc2c1=O)Cc1ccccc1,-4%
O=C(Nc1cccc(F)c1)NC1CCCCC1,1%
Cc1cc(Cl)ccc1OCC(=O)NCCCN1CCOCC1,22%
Cc1cc2ccccc2n1CCNC(=O)c1cccs1,50%
CCOC(=O)N1CCN(C(=O)CSCC(=O)Nc2nc(-c3cccs3)cs2)CC1,65%
COc1cccc(-c2nc(NCc3cccnc3)c3ccccc3n2)c1,?
COc1ccc(N2CCN(C(=O)c3cc4c(-c5cccc(OC)c5)nn(C)c4s3)CC2)cc1,94%
O=C(O)c1ccc(C(=O)c2ccccc2)c(C(=O)O)c1,12%[5.75 µM]
CCc1ccccc1NC(=O)CN1CCC(NC(=O)COC)CC1,-2%
CCCC[C@@H]1C[C@H]1C(NC(=O)c1ccccc1)c1ccccc1C(F)(F)F (stereo partly specified),-17%
CCOC(=O)c1c(NC(=O)CSc2nnnn2C)sc(C)c1-c1ccc(C)cc1,80%
O=C(CSc1nnc(-c2ccccc2)o1)N1CCc2ccccc2C1,15%
COc1ccc(NC(=O)c2ccc(N(C)S(C)(=O)=O)cc2)cc1OC,-2%
COC(=O)c1cc(Cl)c(N)cc1OC,0%
O=S1(=O)CCN2C(c3ccc4c(c3)CCCC4)=CSC2=N1,13%
Cc1[nH]nc2c1C(c1ccc(Cl)cc1)C(C#N)=C(N)O2 (stereo unspecified),-4%
COCCNS(=O)(=O)c1ccc(-c2ccc(S(=O)(=O)NCCOC)cc2)cc1,5%
